# Lassa entry inh – Lassa virus entry inhibition; hit rate 1.2% among 300,000; Lassa virus pseudotype entry inhibition, cell reporter; control for the full effect not named in the record; Potency, µM (highest dose often 37.9 µM), for inactives: at the highest dose activity change, negative = inhibition, hits mostly inhibitors; active means well fitted inhibition curve with a large enough effect; inconclusive means small, poorly fitted or top-dose-only effect, or effect the other way; inactive means flat fitted curve, though single readings scatter; tested in HEK293 cells; further: on the % scale 0 is the no-effect control and ±100 the full control effect; nearly all actives have a fitted effect of over 50% in size; luciferase read-out
# Cruzain Triton – cruzain (T. cruzi) inhibition with detergent; P25779; purified cruzain, Z-FR-AMC fluorescence, 0.01% Triton; Potency, µM, without a hit: max response, negative = inhibition, hits mostly inhibitors; hit rate 0.43% among 200,000; AID 1478; active means well fitted curve in the direction sought with a large enough effect; inconclusive means small, poorly fitted or top-dose-only effect, or another doubt; inactive means no such curve, though single readings can be large; an effect the other way counts as inactive or inconclusive;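 further: plate controls were neutral wells for no effect and buffer without enzyme for full effect; nearly all actives have a fitted effect of over 40% in size; top concentration of the series not given in the record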
# Target sequence (P25779 123-467 limits assumed): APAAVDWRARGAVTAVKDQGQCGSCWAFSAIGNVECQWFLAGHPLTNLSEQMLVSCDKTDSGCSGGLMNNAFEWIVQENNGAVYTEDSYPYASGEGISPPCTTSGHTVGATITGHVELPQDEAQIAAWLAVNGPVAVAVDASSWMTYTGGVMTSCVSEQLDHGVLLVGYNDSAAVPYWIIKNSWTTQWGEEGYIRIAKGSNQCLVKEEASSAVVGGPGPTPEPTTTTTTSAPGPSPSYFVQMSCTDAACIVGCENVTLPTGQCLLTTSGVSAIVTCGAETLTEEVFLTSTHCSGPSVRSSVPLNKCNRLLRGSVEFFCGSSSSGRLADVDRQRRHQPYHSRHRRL
#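 Cysteine protease activity tested under reducing, mildly acidic conditions (100 mM sodium acetate pH 5.5, 5 mM DTT) plus 0.01% Triton X-100. Cruzain 1.5 nM; substrate Z-FR-AMC 2 uM; 15 min compound preincubation at room temperature.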
# MARV entry inh – inhibitors of Marburg virus binding or cell entry | AID 540276 | Potency, µM (series often up to 37.8 µM), for inactives: at the highest dose activity change, negative = inhibition, hits mostly inhibitors | hit rate 1.8% among 300,000 | Marburg virus pseudotyped entry inhibition, cell reporter; control for the full effect not named in the record; about a third of the inactives were read at about 46 µM; active = well fitted inhibition curve with a large enough effect; inconclusive = small, poorly fitted or top-dose-only effect, or effect the other way; inactive = flat fitted curve, though single readings scatter; tested in HEK293 cells; about a fifth of its hits are not listed in these tables; further: on the % scale 0 is the no-effect control and ±100 the full control effect; luciferase read-out
# RE007 growth inh – less growth of the S. pombe RE007 Vpr strain. S. pombe RE007 Vpr strain, BacTiter-Glo ATP luminescence, 24 h; control for the full effect not named in the record. Potency, µM (top dose mostly 92.2 µM), inactives show at the highest dose activity change, negative = less growth. hit rate 0.21% among 360,000. AID 651644; active = well fitted falling curve with a large enough effect; inconclusive = small, poorly fitted or top-dose-only effect; inactive = no such curve, though single readings can be large or run the other way;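 further: on the % scale 0 is the no-effect control and ±100 the full control effect; nearly all actives have a fitted effect of over 50% in size; the assay follows cell death caused by Vpr and the record does not say whether a fall means rescue or toxicity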
#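 Fission yeast strain RE007, carrying one chromosomally integrated HIV-1 vpr copy, was seeded at OD 0.01 in PMG+AL medium with 23 nL pinned compound. After 24 h at 30 °C and 99% humidity, viability was read by BacTiter-Glo luminescence.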
# NS1 inh – blocks influenza NS1 protein function | S. cerevisiae slowed by influenza A NS1, growth recovery by OD600 | Potency, µM (top dose mostly 46.1 µM), without a hit: at the highest dose activity, positive = more growth | hit rate 0.4% among 270,000; further: actives are rising curves; nearly all actives have a fitted effect of over 50% in size
#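 Compounds were scored for reversing the slow growth caused by influenza A NS1 in S. cerevisiae, measured by optical density at 600 nm. Assay medium contained 2% galactose at pH 6.0; NS1-free yeast of the same strain were the positive control.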
# 2A StopGo – lowers the luciferase signal of an FMDV 2A StopGo reporter; Potency, µM (titrated, usually from 57.9 µM), for the others: top-dose signal change, negative = less light; AID 1159524; hit rate 1.2% among 410,000; human cells with a luciferase reporter of 2A StopGo recoding; control for the full effect not named in the record; active = well fitted falling curve with a large enough effect; inconclusive = small, poorly fitted or top-dose-only effect; inactive = no such curve, though single readings can be large or run the other way; tested in HEK293T cells; further: on the % scale 0 is the no-effect control and ±100 the full control effect; nearly all actives have a fitted effect of over 45% in size; luciferase light after 4 h
# SARS PLpro yeast – SARS-CoV PLP inhibition in yeast; hit rate 0.19% among 330,000; S. cerevisiae expressing SARS-CoV PLpro, growth rescue; control for the full effect not named in the record; Potency, µM (titrated, usually from 32.9 µM), for the others: at the highest dose activity, positive = growth rescue; AID 485353; further: 0% is about no effect; nearly all actives have a fitted effect of over 55% in size; growth read by luminescence after 48 h
# Cruzain noTriton – blocks cruzain activity in detergent-free assay | hit rate 2.3% among 200,000 | Potency, µM, without a hit: max response, negative = inhibition, hits mostly inhibitors | purified cruzain, Z-FR-AMC fluorescence, no detergent | AID 1476 | P25779; active means well fitted curve in the direction sought with a large enough effect; inconclusive means small, poorly fitted or top-dose-only effect, or another doubt; inactive means no such curve, though single readings can be large; an effect the other way counts as inactive or inconclusive;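 further: plate controls were enzyme without inhibitor for no effect and buffer without enzyme for full effect; nearly all actives have a fitted effect of over 40% in size; top concentration of the series not given in the record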
#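 Detergent-free condition (0.00005% Triton X-100) in acetate buffer pH 5.5 with DTT. 1.5 nM enzyme and compound were pre-mixed 15 min, then 2 uM Z-FR-AMC substrate added; reaction progress from fluorescence change between first and third reads (60 s).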
# * marks the source's active call; other numbers are inactive results; ? = inconclusive; / = no result given; & = joins results of further samples; [ ] = dose if it differs, or a comment. Unless noted, the call rests on the fitted dose curve; in most records, active means well fitted rising curve with a large enough effect; inconclusive means small, poorly fitted or top-dose-only effect; inactive means no such curve, though single readings can be large or run the other way. Potency means the concentration at half of the fitted maximal effect.
SMILES,Lassa entry inh,Cruzain Triton,MARV entry inh,RE007 growth inh,NS1 inh,2A StopGo,SARS PLpro yeast,Cruzain noTriton
COC(c1ccccc1)c1nnc(CCC(=O)NCc2ccc3ncccc3c2)o1 (stereo not drawn),-1%,/,-5%[46.1 µM],-7%,0%,16%,1%,/
O=C(COC(=O)c1cccc([N+](=O)[O-])c1)Nc1ccc(Cl)cn1,1%,/,10%[46.1 µM],-9%,/,9%,-10%,/
CC(=O)N1CCN(C(=O)c2cccc(S(=O)(=O)N3CCN(c4ccc(F)cc4)CC3)c2)CC1,-3%,/,?,-14%,/,-15%,0%,/
O=C(CC1SC(=Nc2ccccc2F)N(CCN2CCOCC2)C1=O)Nc1ccc(F)cc1F (stereo not drawn),11µM*,/,/,-13%,/,-29%,2%,/
Cn1ccc2cc(S(=O)(=O)N3CCN(C(=O)Nc4ccc(F)cc4F)CC3)ccc21,-2%[46.1 µM],-4.2%,/,/,/,-6%,/,-4%
Cc1cc(C)c(S(=O)(=O)N2CCCCC2CCNC(=O)C(=O)NCc2ccccn2)c(C)c1 (stereo not drawn),-7%,/,?,19%,/,-26%,-2%,/
C/C(CC(=O)Nc1cccc2c1CCCC2)=N\NC(=O)Cc1ccccc1,0%[46.1 µM],/,-24%[46.1 µM],-12%,20%,11%,-4%,/
CC(=O)Nc1ccc(NC(=O)COC(=O)[C@@H](NC(=O)c2ccc(F)cc2)C(C)C)cc1,-12%[46.1 µM],/,?,3%,-3%,-14%,1%,/
COc1ccc(S(=O)(=O)N2CCC(C(=O)Nc3ccc(F)cc3)CC2)c2cccnc12,-7%,/,16%[46.1 µM],-4%,/,-24%,-1%,/
COc1ccc(Cc2c(O)nc(SCC(=O)N3CCOCC3)[nH]c2=O)cc1,1%[46.1 µM],/,2%[46.1 µM],1%,1%,-10%,-1%,/
Cc1nc2cc(-c3ccccc3)nn2c(C)c1CCC(=O)NCc1cccc(Cl)c1,18%[46.1 µM],-1.8%,-17%[46.1 µM],/,/,-7%,/,21%
NC(=O)COc1ccc2cc(-c3ccc(F)cc3)c(=O)oc2c1,19%[46.1 µM],/,-6%[46.1 µM],7%,21%,18%,21%,/
COc1ccc(-c2nc(SCC(=O)N(CC(C)C)c3c(N)n(Cc4ccccc4)c(=O)[nH]c3=O)n[nH]2)cc1,?,/,-23%[46.1 µM],1%,/,1%,-7%,/
O=C(NNC(=O)c1ccccc1Cl)c1cccs1,17%,-0.8%,?,8%,9%,56%[activator],9%,-6%
Cc1ccc(CCNC(=O)C2CCC(CNc3c(N4CCC(C)CC4)c(=O)c3=O)CC2)cc1 (stereo not drawn),0%,2.9%,-27%,-5%,34%,-12%,-2%,3%
O=C(CN1C(=O)NC2(CCCCC2)C1=O)NCCc1ccc(Cl)cc1Cl,7%[46.1 µM],/,2%[46.1 µM],?,/,-20%,-5%,/
COc1ccc(OCc2cc(C(=O)N3CCCCCCC3)no2)c(Cl)c1,9%,/,12%,41%,-18%,35%[activator],-3%,/
O=C(Nc1ccccc1C(=O)N1CCCCCC1)c1cccc([N+](=O)[O-])c1,?,/,-2%,-6%,8%,29%,4%,/
COCCNC(=O)C1Cc2c(ccc3ccccc23)O1 (stereo not drawn),8%,/,-13%[46.1 µM],-7%,-4%,33%[activator],1%,/
CC(O)(c1ccccc1)C(C(c1ccccc1)N1CCOCC1)N1CCOCC1 (stereo not drawn),-3%,/,-15%,-5%,/,-22%,/,/
COCCn1c(SCC(=O)NCCc2ccc(OC)c(OC)c2)nc2c([nH]c3ccccc32)c1=O,25%,/,23%[46.1 µM],6%,/,-15%,-2%,/
O=C(NCCN1C(=O)S/C(=C\c2cccnc2)C1=O)c1cc(S(=O)(=O)N2CCOCC2)ccc1F,/,/,/,-13%,10%,-22%,0%,/
COc1ccc(Br)cc1/C=N/NC(=O)c1nc(-c2ccccc2)n2c1CCCCC2,-16%,1.9%,?,3%,5%,?,7%,?
O=C(Cc1c(F)cccc1Cl)Nc1ccon1,1%,2.8%,1%,7%,10%[9.22 µM],2%,-1%,-2%
CC1(C)Oc2ccc(C(=O)NC3CC3)cc2N(CC(=O)N2CCOCC2)C1=O,4%,3.1%,-2%,7%[3.69 µM],3%,6%,-3%,6%
CC1(C)C(=O)Nc2ccccc2N1C(=O)COC(=O)Cn1cnc2ccccc2c1=O,3%,-0.3%,-8%,3%,-11%,-17%,0%,5%
O=C(O)Cn1cc(C(=O)C2CC2)c2ccccc21,?,-1.5%,4%,7%,0%,-9%,1%,-13%
C#CCNC(=O)C1=C[C@H](c2ccc(Br)cc2)[C@@H](CCCO)[C@H](OCC)O1,/,/,/,-4%,0%,-24%,-1%,/
CCN(C(=O)CSc1nnnn1-c1ccc(Cl)cc1)C1CCS(=O)(=O)C1 (stereo not drawn),-3%,/,3%,-5%,/,-8%,?,/
O=C(NCCCCNC(=O)c1cccnc1Cl)c1cccnc1Cl,/,/,/,-2%,6%,5%,-4%,/
O=C(CSc1n[nH]c(-c2ccccc2)n1)NCCc1ccccc1,-3%[46.1 µM],2.1%,/,/,/,-27%,/,-12%
O=[N+]([O-])c1cccc(S(=O)(=O)N/N=C\c2ccc3c(c2)OCO3)c1,23%[46.1 µM],/,-6%[46.1 µM],-5%,3%,71%[activator],1%,/
Cc1nc(C)c(C(=O)N(c2ccc(F)cc2)C(C(=O)NCC2CCCO2)c2ccccc2)s1 (stereo not drawn),?,/,-17%[46.1 µM],-3%,-4%,5%,1%,/
O=C(c1ccc(NC(=S)Nc2ccc(F)cc2F)cc1)N1CCOCC1,/,/,/,7%,5%,7%,-1%,/
O=c1oc(-c2cccs2)nc2ccccc12,-3%,-4.5%,?,?,-90%,15%,-4%,0%
COc1cccc(NC(=O)CN(C)C(C)C(=O)N2CCCCC2)c1 (stereo not drawn),-20%[46.1 µM],/,7%[46.1 µM],6%,/,-2%,-13%,/
O=C(NCCc1ccc(Cl)cc1)C1COc2ccccc2O1 (stereo not drawn),11%[46.1 µM],/,-6%[46.1 µM],-21%,5%,-3%,-14%,/
COc1ccc(NC2=C(Cl)C(=O)N(c3ccccc3)C2=O)c(OC)c1,/,/,/,?,2%,-22%,-4%,/
COc1ccc2c(CNCc3cccs3)c(C(=O)O)n(Cc3ccccc3F)c2c1,-13%[46.1 µM],-6.9%,/,/,/,-3%,/,10%
CCCCn1c(O)c(C(C)=NCc2ccc3c(c2)OCO3)c(=O)[nH]c1=O,?,/,1%,4%,-2%,?,0%,/
O=[N+]([O-])c1cccc(/C=N/n2c(-c3cccnc3)n[nH]c2=S)c1,1%,-14%,?,9%,?,-26%,9%,-3%
COc1cccc(OCCn2ccnc2)c1,0%,-0.3%,5%,1%,-8%,-14%,3%,-9%
CC(=O)c1ccc(NS(=O)(=O)c2ccc3ccccc3c2)cc1,-15%,-13%,12%,4%,12%,47%[activator],1%,-15%
CCC(=O)N1CCc2cc(S(=O)(=O)CCC(=O)N(C)c3ccc(OC)cc3)ccc21,9%[46.1 µM],-0.1%,3%&3%[46.1 µM],3%,3%,8%&3%,-2%,3%
O=C(Nc1nccs1)c1cc2cc(Cl)ccc2oc1=O,/,/,/,-4%,-1%,14%,0%,/
O=C(NNC(=O)C1CCCCC1)c1ccc(Br)cc1,/,/,/,27%,4%,38%[activator],1%,/
CN(C)c1ccc(C2=NOC(CN3C(=O)c4ccccc4S3(=O)=O)C2)cc1 (stereo not drawn),-24%,-1.5%,-8%[46.1 µM],14%,-32%,-16%,-4%,-11%
O=C(CN1CCC(Cc2ccccc2)CC1)NC(=O)NC1CCCCC1,6%[46.1 µM],/,-28%[46.1 µM],-2%,-3%,-5%,0%,/
CC(C)(C)c1cc(NCCCn2ccnc2)n2ncc(-c3ccc(Cl)cc3)c2n1,?,-27%,?,22µM*,-39%,6%,-20%,?
O=C(/C=C/c1cccs1)c1ccc([N+](=O)[O-])cc1,1%,/,6%,-26%,1%,25%,-3%,/
O=C(NC(=S)Nc1ncc(Br)cc1Br)c1ccccc1,-10%,/,-28%[46.1 µM],-6%,0%,46%[activator],-19%,/
CSc1nsc(SC)c1C(=O)Nc1ccc(Cl)cc1,/,/,/,0%,-2%,-29%,-1%,/
O=C1CC(NCc2ccc3c(c2)OCO3)C(=O)N1CCc1ccccc1 (stereo not drawn),0%,7.6%,9%,-12%,-20%,13%,-10%,-1%
COC(=O)c1ccccc1NC(=S)N(Cc1ccc2c(c1)OCO2)Cc1cc2ccc(OC)cc2[nH]c1=O,?,-5.2%,?,8%,?,-24%,3%,-30%
COc1ccc(CCNC(=O)c2ccc3c(c2)CCN3S(=O)(=O)c2ccc(C)cc2)cc1OC,?,-2.6%,3%[46.1 µM],/,/,?,/,?
CCOC(=O)c1ccc2[nH]c(-c3ccc(S(=O)(=O)F)cc3)cc(=O)c2c1,/,-2.2%,/,/,0%&4%,-8%,1%,-4%
CC(C)COc1ccc(C(=O)NCc2ccco2)cc1,8%,-3.7%,7%[46.1 µM],11%,-45%,51%[activator],-2%,-6%
Cc1ccccc1CC1(CO)CCCN(Cc2ccccc2Cl)C1 (stereo not drawn),0%,/,?,1%,18%,-7%,-3%,/
COc1ccc(/C=C(\C#N)c2nc3ccc(C)cc3[nH]2)cc1Oc1ccc(C(F)(F)F)cc1[N+](=O)[O-],19%,-1.6%,-28%,14%,1%,0%,-6%,5µM*
CCOC(=O)C1=NN(c2ccccc2)C2=NC(C)=C(C(=O)OC)C(c3ccc(C)cc3)N12 (stereo not drawn),4%,-6.3%,?,-30%,-4%,?,-44%,-4%
CC(C)C(=O)Nc1ccc(Nc2ccccc2)cc1,9%,2.8%,13%,-24%,-16%,40%[activator],-22%,-11%
O=C(c1cccc(S(=O)(=O)N2CCCCC2)c1)N1CCc2ccccc21,6%,-5.2%,?,-5%,3%,4%,5%,-19%
O=C1CCC(=O)N1CN(C(=O)c1ccco1)c1ccccc1,-16%,-2.8%,0%[46.1 µM],7%,3%,-7%,-1%,-5%

# Source: PubChem (National Center for Advancing Translational Sciences (NCATS))
